Screening results (PubChem)
PKD1 kinase inh = inhibitors of human PKD1 kinase. Q15139. PKD1 kinase fluorescence polarization assay. inhibition, %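 (about 10 µM by stock and volumes)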. 0.056% of 200,000 active. AID 797;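 active means inhibition of 50% or more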;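 further: controls were vehicle for no effect and a reference inhibitor for full effect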
Target sequence (Q15139 whole entry, looked up): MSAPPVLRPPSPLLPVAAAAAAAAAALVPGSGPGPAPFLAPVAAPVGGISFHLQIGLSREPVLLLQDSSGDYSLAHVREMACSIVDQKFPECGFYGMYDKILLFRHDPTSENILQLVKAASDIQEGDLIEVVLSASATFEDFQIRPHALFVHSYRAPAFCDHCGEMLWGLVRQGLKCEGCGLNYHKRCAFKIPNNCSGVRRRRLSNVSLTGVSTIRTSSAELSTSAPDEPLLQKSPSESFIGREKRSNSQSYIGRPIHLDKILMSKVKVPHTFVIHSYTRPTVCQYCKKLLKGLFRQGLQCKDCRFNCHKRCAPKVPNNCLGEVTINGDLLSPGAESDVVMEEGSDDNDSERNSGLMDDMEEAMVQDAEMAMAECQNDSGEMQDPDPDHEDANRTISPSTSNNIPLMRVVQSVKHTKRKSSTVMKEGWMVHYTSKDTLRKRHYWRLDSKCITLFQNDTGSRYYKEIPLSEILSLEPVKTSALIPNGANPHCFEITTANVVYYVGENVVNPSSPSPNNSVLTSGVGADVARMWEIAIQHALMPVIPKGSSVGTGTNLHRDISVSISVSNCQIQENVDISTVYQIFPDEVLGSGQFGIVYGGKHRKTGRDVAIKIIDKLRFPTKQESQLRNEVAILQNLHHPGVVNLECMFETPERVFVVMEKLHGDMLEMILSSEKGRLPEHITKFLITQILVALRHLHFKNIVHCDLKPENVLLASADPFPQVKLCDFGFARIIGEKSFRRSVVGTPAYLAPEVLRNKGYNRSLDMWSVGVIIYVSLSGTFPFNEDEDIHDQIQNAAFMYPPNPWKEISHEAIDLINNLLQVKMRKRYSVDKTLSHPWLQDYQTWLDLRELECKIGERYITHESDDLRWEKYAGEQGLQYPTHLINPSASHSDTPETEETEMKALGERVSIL
GALR2 ag = agonists of human galanin receptor 2 (GALR2). GALR2-expressing cells, agonist activation read-out. activation, %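 (tested at 5 µM)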. 0.48% of 140,000 active;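 active means above mean plus 3 SD of all compounds, about 5% in these data, not always enough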;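 further: 0% = vehicle buffer wells and 100% = reference agonist at full effect; tested in CHO reporter cells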
RGS16-Gao = modulates binding between human RGS16 and Galphao | binding response (% of control), % at 10 µM | O15492+P09471 | bead-based flow cytometry RGS16-Galphao binding, fluorescence; actives lie on both sides | 0.38% of 220,000 active | AID 1441;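 active means below 25% or above 175%, edge rows of some plates excepted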;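 further: Galphao activated by GDP with aluminum fluoride before binding; 100% = wells without compound and 0% = beads without RGS; some results beyond the cut were filed as inactive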
INS promoter inh = TRM-6 insulin promoter activity inhibition | TRM-6 cells (human fetal islet line), insulin promoter-eGFP reporter, imaging; reporter expression induced with tamoxifen | inhibition, % at 2 µM | 0.9% of 130,000 active | AID 1273;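 active means inhibition above the mean plus 3 SD, with well images judged a real hit on visual review, cut at about 60% in these data, passing the limit was not always enough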
HSV replic up = HSV replication enhancement | HSV replication augmentation in cells, fold increase | maximum fold increase | 0.005% of 220,000 active | AID 1956;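 active means peak rise of 1.5-fold or more in the series; tested in PC3 cells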;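 further: first round at 10 µM; read as green reporter fluorescence; hits show the peak of a series up to 25 µM; 1 = signal of infected wells without compound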
INS promoter inh cell count = further read-out of INS promoter inh, marked with its call; normalized cell count, %; measured here: cell count, toxicity; reference of the scale not given here;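 cells exposed to compound for 48 h; stained nuclei by imaging scaled within each plate; lower means fewer cells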
HSV replic up primary fold = recorded beside HSV replic up, whose call it bears; fold increase; compound at 10 µM; measured here: primary screen fold increase 10 uM; tested in PC3 cells;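 GFP signal in the first replicate; 1 = infected wells without compound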
* hit, by the source's call; i = inactive; x = not tested or not shown. No enrichment for hits; overall some 1.3% were active at least once.

SMILES	PKD1 kinase inh	GALR2 ag	RGS16-Gao	INS promoter inh	INS promoter inh cell count	HSV replic up	HSV replic up primary fold
COC1=Cc2c(ccc3ccc(=O)oc23)OC1(C)C	10	-1.2	96	-74	117	i	0.83
CC(=O)Nc1ccc(S(=O)(=O)NCC2CCC(C(=O)NCCC(C)C)CC2)cc1 (centres undefined)	-6	0.3	94	x	x	i	0.97
CCOC(=O)C(CC)(CCC(=O)O)c1csc(N)n1 (centres undefined)	3	-0.4	100	10	141	i	0.93
O=C(C1CCC(CNS(=O)(=O)c2cccc3cccnc23)CC1)N1CCCC1 (centres undefined)	-1	0.1	123	x	x	i	0.89
C=CCS/C(=N\n1cnc2ccccc2c1=O)N1CCCCC1	0	-2.0	96	x	x	i	0.88
Nc1c(Cl)cc(Cl)cc1C(=O)OCC(=O)NC1CC1	-11	-1.6	104	0	98	i	0.93
O=C(c1cc2ccccc2oc1=O)N(Cc1cccc(Br)c1)C1CCS(=O)(=O)C1 (centres undefined)	x	x	105	x	x	i	0.89
O=C(CCN1CCN(c2ccccc2)CC1)Nc1ccc(Cl)cc1	3	-1.1	112	-46	85	i	1
O=C(NCCc1ccccc1)c1ccccc1NC(=O)C1CCCO1 (centres undefined)	-2	x	105	x	x	i	1.1
OC(COCCOc1ccc(Br)cc1)CN1CCCCC1 (centres undefined)	-15	0.0	56	32	84	i	0.89
Cc1cccc(-n2c(SCC(=O)NC3CCCC3)nnc2-c2ccoc2C)c1	0	-0.3	109	-306	121	i	0.97
CCc1ccc(OC(=O)c2ccn(CC)n2)cc1	10	-1.3	106	x	x	i	0.91
CC(C)CC(COCc1ccc(C(F)(F)F)cc1)N1CCN(C(=O)c2ccc(C(F)(F)F)cc2)CCC1=O (centres undefined)	-5	-1.2	107	10	115	i	0.98
Cc1ccc2c(c1)C(O)(CC(=O)/C=C/C=C/c1ccccc1)C(=O)N2 (centres undefined)	-10	0.0	114	-7	55	i	0.88
O=C(COc1cccnc1[N+](=O)[O-])NCCc1ccc(F)cc1	-5	x	96	x	x	i	0.92
Cc1ccc(Cn2c(SCC(=O)N3CC(=O)Nc4ccccc43)nc3ccccc3c2=O)cc1	-7	-1.4	106	0	70	i	0.86
CCOC1(OCC)N=C(N)C2(C#N)C(c3cccc(C)c3)C12C#N (centres undefined)	-11	-0.3	110	-3	196	i	0.99
COc1ccc(CCN=C(C)C2=C(O)C(c3ccccc3)OC2=O)cc1OC (centres undefined)	-7	x	101	-67	110	i	0.99
O=C(NC1CCCCC1)C(c1cccs1)N(CCCN1CCOCC1)C(=O)c1ccc(-c2ccccc2)[nH]1 (centres undefined)	-2	x	105	x	x	i	0.95
CN1CCOCCOCCOCCN(C)C1=S	0	x	102	x	x	i	0.96
Cn1c(SCc2ccccc2)nnc1-c1cccs1	-10	-0.6	103	3	103	i	1
CCN(CC)C(=O)c1cc2cc([N+](=O)[O-])ccc2s1	-4	-0.8	102	33	95	i	0.87
CCN(C#N)c1nc(NC(C)C)nc(NC(C)C)n1	-1	0.3	77	12	166	i	1.2
COc1ccccc1N1CCN(CCC(=O)Nc2ccc3c(c2)OCO3)CC1	2	-0.2	113	-22	94	i	0.94
CCOC(=O)N1CCN(C(=O)CSc2nc(C)nc3c2c(=O)n(C)c(=O)n3C)CC1	3	x	92	x	x	i	0.9
O=C(c1ccc(COc2ccccc2Br)o1)N1N=C(C(F)F)CC1(O)C(F)F (centres undefined)	-9	0.7	102	38	97	i	0.88
CN(C)S(=O)(=O)c1cccc(-c2nnc(SCCNCCO)n2-c2ccc(F)cc2)c1	-4	x	104	x	x	i	1.2
CC(C)(C)Nc1cccccc1=O	1	-2.1	103	x	x	i	0.9
COc1ccc(S(=O)(=O)N2CCC(O)(c3ccc(Cl)cc3)CC2)cc1OC	x	x	107	x	x	i	1.1
Cc1ccc2nc(-c3ccc(NC(=O)CSCC(=O)O)cc3)sc2c1	x	x	93	x	x	i	1

5 of these compounds in a different format:
Every second line gives: PKD1 kinase inh, GALR2 ag, RGS16-Gao, INS promoter inh, INS promoter inh cell count, HSV replic up, HSV replic up primary fold
> CCN(CC)C(=O)c1cc2cc([N+](=O)[O-])ccc2s1
    -4, -0.8, 102, 33, 95, i, 0.87
> CCN(C#N)c1nc(NC(C)C)nc(NC(C)C)n1
    -1, 0.3, 77, 12, 166, i, 1.2
> COc1ccccc1N1CCN(CCC(=O)Nc2ccc3c(c2)OCO3)CC1
    2, -0.2, 113, -22, 94, i, 0.94
> CCOC(=O)N1CCN(C(=O)CSc2nc(C)nc3c2c(=O)n(C)c(=O)n3C)CC1
    3, x, 92, x, x, i, 0.9
> O=C(c1ccc(COc2ccccc2Br)o1)N1N=C(C(F)F)CC1(O)C(F)F (centres undefined)
    -9, 0.7, 102, 38, 97, i, 0.88

Additional records follow:
SMILES	PKD1 kinase inh	GALR2 ag	RGS16-Gao	INS promoter inh	INS promoter inh cell count	HSV replic up	HSV replic up primary fold
COc1cc(/C=N/NC(=O)c2cc(-c3cccs3)nc3ccccc23)ccc1O	x	x	106	x	x	i	0.97
Cc1cccc(N2CC(C(=O)O)CC2=O)c1 (centres undefined)	-1	-2.3	106	29	91	i	0.94
O=C(CN1CCCCCCC1)NC(=O)NC1CCCCC1	2	x	105	14	123	i	0.92
CC(c1ccccc1)C1C(C#N)=C(N)SC(N)=C1C#N (centres undefined)	-4	-1.7	95	0	83	i	0.8
COC(=O)NC(NC(=S)Nc1ccccc1OC)C(Cl)(Cl)Cl (centres undefined)	-5	0.3	99	x	x	i	1.1
CC1(C)CC(=O)C=C(NCc2ccccc2)C1	11	-3.1	110	x	x	i	1.1
CC1CCN(S(=O)(=O)c2cccc(C(=O)Nc3ccccn3)c2)CC1	-11	-1.7	100	58	112	i	0.96
CC1C(=O)O[C@@H]2C[C@@H](C)[C@@H]3CCC(=O)[C@@]3(C)[C@@H](O)[C@H]12 (some centres undefined)	x	x	98	x	x	i	0.76
O=C(CSc1nc2ccccc2o1)Nc1ccccc1	-5	-2.6	78	28	127	i	0.89
COc1ccc(OC)c(S(=O)(=O)Nc2ccc(O)c3ccccc23)c1	-4	-0.1	97	-258	47	i	0.78
COC(=O)c1cc(O)cc(OC)c1C(=O)c1c(O)cc(C)cc1O	x	x	66	x	x	i	1.1
O=S(=O)(NCc1cccnc1)c1cccc2nsnc12	-17	-1.5	99	x	x	i	0.75
O=C(N/N=C\c1cc([N+](=O)[O-])ccc1N1CCCC1)c1ccccn1	2	x	109	0	130	i	1.1
Cc1nn(C)c(Cl)c1C(=O)NCC(=O)NCc1ccccc1	0	x	99	0	58	i	0.93
CCC(Sc1nc(=O)cc(N)n1CCc1ccccc1)C(=O)Nc1ccccc1C#N (centres undefined)	-3	-0.7	96	3	97	i	1
CCOc1ccc(-c2nc3scc(-c4cccs4)c3c(=O)[nH]2)cc1	-7	x	98	x	x	i	1
Cc1cc(C(=O)c2cnc(/N=C/N(C)C)s2)c(F)cc1Cl	-6	x	100	-33	62	i	0.97
Cc1[nH]c2ccccc2c1C(=O)CN1C(=O)NC2(CC(C)CC(C)(C)C2)C1=O (centres undefined)	-3	-2.2	82	27	103	i	0.91
CC(C)Sc1nc(N2CCOCC2)c2c3c(sc2n1)COC(C)(C)C3	4	-2.9	98	-35	105	i	0.85
Cc1cc(C(=O)CSc2nnnn2C)c(C)n1C1CC1	6	x	107	50	143	i	0.97
CC(C)Cn1c(=O)c(C(=O)Nc2cnccn2)c(O)c2ccccc21	-1	-0.2	100	x	x	i	0.86
CC(=O)c1ccc(NC(=O)C2CCCN2S(=O)(=O)c2cccc3cccnc23)cc1 (centres undefined)	21	-0.5	86	x	x	i	0.81
NS(=O)(=O)c1cc(C(=O)OCC(=O)NC2CC2)ccc1Cl	-2	-2.0	110	-13	96	i	0.97
CS/C(=C(/C#N)S(=O)(=O)c1ccc(Cl)cc1)N1CCOCC1	x	x	113	x	x	i	0.85
O=C(Nc1cccc2ncccc12)c1cccc(F)c1	1	-2.0	97	-43	113	i	1.1
COC(=O)C1=NN(C(=O)c2ccccc2)C(C)(O)C1 (centres undefined)	-3	0.1	116	-23	181	i	0.94
O=C(CCc1nnc(Cc2ccc(-c3ccccc3)cc2)o1)NCCc1cccnc1	8	x	100	x	x	i	1
N=c1c2c(-c3ccccc3)c(-c3ccccc3)n(Cc3ccccc3)c2ncn1CCCO	-7	-0.2	105	-32	44	i	0.46
CC1/C(=N/O)C(CN(C)C)C2CC1C2(C)C (centres undefined)	-7	-1.1	91	53	103	i	0.96
CC(N=Cc1nc(-c2ccccc2)oc1O)c1ccccc1 (centres undefined)	3	-2.0	163	-15	109	i	0.88
C=CCn1c(C2CC(=O)N(c3ccc(C)cc3)C2)nc2ccccc21 (centres undefined)	-3	-0.7	105	x	x	i	1
O=C(NCCCN1CCCCC1)C1CCC(=O)N1CCc1ccccc1 (centres undefined)	5	-1.1	96	46	130	i	1
CC(C)OC(=O)/C(=C\c1cccnc1)NC(=O)c1ccccc1	-7	x	100	x	x	i	1.1
Cc1cc(/C=C\c2ccccc2)nc2ccccc12	0	x	93	x	x	i	1
Cc1ccc(NC(=O)C(=O)NCc2ccc(/C=C(/C#N)C(=O)NCc3cccnc3)o2)cc1	0	-1.2	107	-16	44	i	1.1
Cc1cn(CCC(=O)Nc2ccccc2N2CCOCC2)c2ccccc12	x	x	101	x	x	i	1.1
CC(Oc1ccccc1Cl)C(=O)/C=C/N(C)C (centres undefined)	10	-1.5	104	-70	84	i	1
Cc1cc(NC(=O)CC#N)n(-c2ccccc2)n1	-2	x	101	-11	103	i	1
CCCCNC(=O)c1nc2ncc(Br)cn2n1	-2	-2.0	101	0	144	i	1.1
O=C(CN1CCCc2ccccc21)N1CCc2ccccc21	x	x	99	x	x	i	0.97
CCOC(=O)Cc1cnc(NC(=O)CSc2nc(C)cc(C)n2)s1	-5	x	103	-25	89	i	0.97
Cc1nc(CCNC(=O)CC2C(=O)NCCN2Cc2ccccc2F)sc1C (centres undefined)	x	x	102	x	x	i	0.93
Cn1c(=O)c2c(nc(NCc3ccc4c(c3)OCO4)n2C)n(C)c1=O	-7	-1.9	98	-52	179	i	0.99
CCOC(=O)c1c(C)[nH]c(C)c1C(=O)CSc1nc2ccccc2n1CCOC	-10	-0.1	106	x	x	i	1
C=CCc1ccccc1OCCn1ccnc1	-5	-1.1	180	37	90	i	1.1
CC(C)CCN1CCN(Cc2ccc(C#CCCO)cc2)CC1CCO (centres undefined)	-6	x	97	x	x	i	0.92
COC(=O)c1ccccc1NC(=O)C1CC(=O)N(c2ccccc2)C1 (centres undefined)	-3	-0.5	103	-22	184	i	0.83
CC1=C(C#N)C2(O)C(=O)c3ccccc3C2(O)N1 (centres undefined)	1	x	100	-53	90	i	0.99
Fc1ccc(-c2nc3c(-c4ccc(Cl)cc4)cnn3cc2CCN2CCOCC2)cc1	2	x	105	x	x	i	1.1
O=C1CCC(=O)N1CCc1c[nH]c2ccccc12	-1	-0.7	101	-36	166	i	0.98
O=C1CC(Cc2ccc(Cl)cc2)C(=O)N1c1cc(Cl)ccn1 (centres undefined)	x	x	97	x	x	i	1.2
CC(C)c1ccc(N(CC(=O)O)S(=O)(=O)c2cccnc2)cc1	-1	-0.4	101	x	x	i	1.1
CC(=O)Nc1ccc(C(=O)OCc2ccccc2Br)cc1	-4	x	105	x	x	i	0.99
Cc1ccc2c(O)c(C)c(=O)[nH]c2n1	0	x	110	x	x	i	1
Cc1ccc(S(=O)(=O)N2CCCOC2CNC(=O)C(=O)NCCc2c[nH]c3ccccc23)cc1 (centres undefined)	-9	-0.4	99	x	x	i	0.97
CC(C)c1ccc(/C=C/C(=O)NCCCc2ccccc2)cc1	4	-1.7	108	0	93	i	0.87
O=C(/C=C/c1ccc(Cl)cc1Cl)c1nc2ccccc2[nH]1	2	0.1	99	x	x	i	0.89
COCCN(C(=O)CNC(=O)c1cccs1)C(C(=O)NC(C)(C)C)c1ccccc1 (centres undefined)	0	x	101	x	x	i	1.2
COc1ccc2cc(S(=O)(=O)n3cnc(C)c3)ccc2c1	-1	x	100	x	x	i	0.9

Full records, quoted from the list:
Fc1ccc(-c2nc3c(-c4ccc(Cl)cc4)cnn3cc2CCN2CCOCC2)cc1 is listed with PKD1 kinase inh: 2; GALR2 ag: x; RGS16-Gao: 105; INS promoter inh: x; INS promoter inh cell count: x; HSV replic up: i; HSV replic up primary fold: 1.1
CC(C)c1ccc(N(CC(=O)O)S(=O)(=O)c2cccnc2)cc1 is listed with PKD1 kinase inh: -1; GALR2 ag: -0.4; RGS16-Gao: 101; INS promoter inh: x; INS promoter inh cell count: x; HSV replic up: i; HSV replic up primary fold: 1.1
COCCN(C(=O)CNC(=O)c1cccs1)C(C(=O)NC(C)(C)C)c1ccccc1 (centres undefined) is listed with PKD1 kinase inh: 0; GALR2 ag: x; RGS16-Gao: 101; INS promoter inh: x; INS promoter inh cell count: x; HSV replic up: i; HSV replic up primary fold: 1.2
